EPAC2 antag: Validation qHTS for antagonist of cAMP-regulated guanine nucleotide exchange factor 4 (EPAC2) | Rap guanine nucleotide exchange factor 4 (Homo sapiens), Q8WZA2 | EPAC2 Rap1B BODIPY-GDP exchange, fluorescence | Potency, µM (top dose mostly 112 µM), for inactives: at the highest dose activity, negative = inhibition, actives largely listed as inhibitors | 16,000 tested, 1.7% active; active means well fitted inhibition curve with a large enough effect; inconclusive means small, poorly fitted or top-dose-only effect; inactive means no such curve, though single readings can be large or run the other way;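 further: 100% = activation by cAMP agonist control; nearly all actives have a fitted effect of over 40% in size; the record reuses the description of the EPAC1 agonist screen; inactives centre near -10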
Target sequence (Q8WZA2 whole entry, looked up): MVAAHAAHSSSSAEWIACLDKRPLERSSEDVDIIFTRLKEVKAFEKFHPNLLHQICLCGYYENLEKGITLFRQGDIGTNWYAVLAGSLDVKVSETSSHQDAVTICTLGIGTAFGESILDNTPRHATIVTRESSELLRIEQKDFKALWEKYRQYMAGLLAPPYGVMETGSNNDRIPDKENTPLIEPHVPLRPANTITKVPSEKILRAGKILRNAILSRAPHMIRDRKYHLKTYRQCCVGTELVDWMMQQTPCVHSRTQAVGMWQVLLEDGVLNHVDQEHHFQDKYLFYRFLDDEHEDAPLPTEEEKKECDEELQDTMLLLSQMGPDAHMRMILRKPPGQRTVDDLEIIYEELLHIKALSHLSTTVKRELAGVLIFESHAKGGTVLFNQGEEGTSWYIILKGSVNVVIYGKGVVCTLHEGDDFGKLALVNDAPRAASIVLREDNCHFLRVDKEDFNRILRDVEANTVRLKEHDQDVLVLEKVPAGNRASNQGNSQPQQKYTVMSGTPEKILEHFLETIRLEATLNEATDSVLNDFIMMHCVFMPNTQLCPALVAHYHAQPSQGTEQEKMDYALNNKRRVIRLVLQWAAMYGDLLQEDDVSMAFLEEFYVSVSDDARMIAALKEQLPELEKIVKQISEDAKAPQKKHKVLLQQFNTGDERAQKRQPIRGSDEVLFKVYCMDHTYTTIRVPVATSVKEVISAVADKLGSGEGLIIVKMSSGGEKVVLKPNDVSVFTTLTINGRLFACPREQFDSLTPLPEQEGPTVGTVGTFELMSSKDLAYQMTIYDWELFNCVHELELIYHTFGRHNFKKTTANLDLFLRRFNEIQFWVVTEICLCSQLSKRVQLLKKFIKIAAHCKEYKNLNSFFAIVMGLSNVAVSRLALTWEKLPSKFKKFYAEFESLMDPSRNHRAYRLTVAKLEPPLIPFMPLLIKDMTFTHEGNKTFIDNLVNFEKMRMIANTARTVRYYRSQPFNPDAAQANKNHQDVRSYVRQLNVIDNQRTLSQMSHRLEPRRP
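Normalized against a 6.5 mM cAMP agonist control, compounds were tested on 100 nM EPAC2 exchanging Rap1B-bound BODIPY-GDP (250 nM) for 50 uM GDP. Fluorescence drop (ex 480, em 540 nm) was tracked at room temperature over 30 min at 5-min intervals.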
An asterisk follows results filed as active; ? = inconclusive; & = joins results of further samples; ! = not active in a repeat; [ ] = dose if it differs, or a comment. Potency means the concentration at half of the fitted maximal effect. The list is partial; the hit share may differ from the screen's.

SMILES	EPAC2 antag
COc1ccc(-n2c(=O)c(CCc3ccccc3)nc3cnc(OC)nc32)cc1	0%
COc1cc(=O)n2c(c1C(=O)N(C)Cc1nonc1C)CCN(C(=O)c1cc(C)cc(C)c1)CC2	-37%
C(=C\c1cccs1)/c1ccccn1	?
c1ccc2cnccc2c1	?
CCC(=O)N[C@@H]1CCc2cccc(OC)c2C1	-37%
COC(F)(F)C(Cl)Cl	-7%
COc1ncc2nc(-c3ccccc3)c(=O)n(CCC#N)c2n1	-31%
COc1cc(C2c3cc4c(cc3C(O)[C@H]3COC(=O)C23)OCO4)cc(OC)c1OC (some centres undefined)	-6%&-8%
COC(=O)N1CCC[C@@]2(CCN(C(=O)Nc3cccc(C#N)c3)C2)C1	?
CCn1nc(C)cc1C(=O)N1CCC2(CC1)c1ccccc1[C@@H](NC(=O)c1cccnc1)[C@@H]2O	-8%
COc1ccc(-c2cc(=O)c3c(OC)c(OC)c(OC)c(OC)c3o2)cc1OC	?
CS(=O)(=O)Nc1cccc(-c2cncnc2NCc2cccs2)c1	-16%
CC[C@@](N)(C(=O)O)c1ccc(C(=O)O)cc1	-22%
O=C(Nc1ccccc1)N1CC2(CCN(C(=O)c3cccc(F)c3)CC2)C1	-26%
CC(C)C[C@@H](NC(=O)[C@@H](O)[C@H](N)Cc1ccccc1)C(=O)O	17%
O=C(NCC1Cc2cccc(-c3ccccn3)c2O1)c1cnn2cccnc12 (centres undefined)	-21%
O=C(Nc1cccc(F)c1)N1CC[C@@]2(CCCN(C(=O)c3cc(C(F)(F)F)cc(C(F)(F)F)c3)C2)C1	?
COc1ccccc1C1CN(Cc2cccc3nccnc23)Cc2ccccc2O1 (centres undefined)	-19%
Clc1ccc(-c2nc3sccn3c2/C=N/OCc2ccc(Cl)c(Cl)c2)cc1	-4%[151 µM]
CCCCC#Cc1nc(NC)c2ncn([C@@H]3O[C@H](CO)[C@@H](O)[C@H]3O)c2n1	9%
CC(C)=CCC/C(C)=C/CC/C(C)=C/CC/C=C(\C)CC/C=C(\C)CCC=C(C)C	-9%&-19%
Nc1ccnc2c1ncn2[C@@H]1O[C@H](CO)[C@@H](O)[C@H]1O	-9%
COc1ccccc1C1CN(Cc2cnn(C)c2C)Cc2ccccc2O1 (centres undefined)	-7%
C1=C(c2ccc3c(c2)CN(Cc2cccn2-c2ncccn2)CCO3)Cc2ccccc21	-13%
CC(C)=CCC/C(C)=C/CC/C(C)=C/CC/C(C)=C/CC1=C(C)C(=O)c2ccccc2C1=O	1%&-17%
(further entries)
SMILES	EPAC2 antag
COc1ccc(NC(=O)N2CC3(CCN(S(=O)(=O)c4ccccc4)CC3)C2)cc1	-9%
COc1c(O)cc2c(-c3ccccc3)cc(=O)oc2c1OC	-13%
COc1cc(CNc2nc(C)c(-c3ccn(CC4CCCN(C)C4)n3)s2)ccc1F (centres undefined)	-4%
O=c1cnc2cnc(Oc3ccccc3)nc2n1C[C@H]1CCCO1	-22%
Cc1cc[n+](CC(=O)c2ccccc2)c2ccccc12	-4%
CCCCCCCCCCCCN1[C@@H](CC(=O)OC)c2cc(F)ccc2S1(=O)=O	-7%
Cn1cccc1C(=O)N1CCC[C@@]2(CCN(C(=O)Nc3cccc(F)c3)C2)C1	-19%
Cc1noc(C)c1-c1nccc(NCc2ccccc2)n1	-22%
COc1ccccc1-c1oc2ccccc2c(=O)c1O	-29%
CC(C)NCC(O)COc1cccc2ccccc12 (centres undefined)	-5%&-9%&12%
O=C(c1ccncc1)N1CCC2(CCCN(C(c3ccccc3)c3ccccc3)C2)CC1	?
Cn1ccnc1	-18%
CN1C2CCC1CC(OC(=O)c1c[nH]c3ccccc13)C2 (centres undefined)	2%
NS(=O)(=O)c1cc2c(cc1Cl)NCNS2(=O)=O	5%&-22%
CCOc1ccc(C(=O)c2ccc(O)c(O)c2O)cc1	-3%
Clc1ccccc1CNCC1CCC(CNCc2ccccc2Cl)CC1 (centres undefined)	-18%
COc1cc(C)c2ccccc2n1	-17%
C[C@]12C=CC(=O)C=C1CC[C@@H]1C2=CC[C@]2(C)[C@@H](C(=O)CN3CCN(c4cc(N5CCCC5)nc(N5CCCC5)n4)CC3)CC[C@@H]12	6%
C[C@@H](CN(C)C[C@H]1C(=O)O[C@@H]2C[C@@]3(C)CCC[C@]4(CO4)C3CC21)[C@H](O)c1ccccc1 (some centres undefined)	-1%
NCCNc1cccc2ccccc12	-14%
C=Nc1ccc(/C=C/c2ccnc3ccccc23)cc1	28%
CCOC(=O)C[C@H]1c2cc(F)ccc2S(=O)(=O)N1C(C)C	-16%
CCCCC(C)(O)C/C=C/[C@H]1[C@H](O)CC(=O)[C@@H]1CCCCCCC(=O)O (some centres undefined)	-2%[11.4 µM]
COC(=O)CNC(=O)c1cnn(-c2ncc3c(n2)-c2ccccc2CCC3)c1C1CC1	-18%
COc1ccccc1OCC(O)CN1CCN(CC(=O)Nc2c(C)cccc2C)CC1 (centres undefined)	5%&-10%
Additional compounds:
SMILES	EPAC2 antag
O=C(Nc1ccccc1)[C@@H]1CC=C[C@@H]2CCN(C3CCCCC3)C(=O)[C@@H]21	-3%
COc1ccc(-c2nc3cnc(N4CCNCC4)nc3n(C3CC3)c2=O)cc1	-9%
CC1(C)C=Cc2cc3ccc(=O)oc3cc2O1	-16%
c1nc(NCCN2CCOCC2)c2cc(-c3ccc4c(c3)OCO4)ccc2n1	-19%
CC(=O)N1CCC2(CC1)CCN(C(c1ccccc1)c1ccccc1)CC2	-30%
CN1CCN(c2ncc3nc(-c4cc(F)cc(F)c4)c(=O)n(Cc4cccs4)c3n2)CC1	-7%
C=C1C[C@@]23CC[C@H]4[C@@](C)(CCC[C@@]4(C)C(=O)OC4OC(CO)C(O)C(O)C4O)[C@@H]2CC[C@]1(OC1OC(CO)C(O)C(O)C1OC1OC(CO)C(O)C(O)C1O)C3 (some centres undefined)	-5%
COc1cccc(C2(CC(=O)N3CCCOc4c(cccc4OC)C3)CC(=O)N(C)C2=O)c1 (centres undefined)	?
CC(C)[C@H]1COCCS(=O)(=O)N1Cc1cccc([N+](=O)[O-])c1	-27%
N[C@H](C(=O)O)c1ccc(C(=O)O)cc1	-12%&-35%
S=C1SCN(Cc2ccccc2)CN1Cc1ccccc1	-15%
Cc1noc(C)c1-c1cncnc1Nc1ccccc1	-4%
Cc1ccccc1	?
Cc1ncc2c(c1CNC(=O)c1ccccc1F)CCN(C(=O)c1[nH]c3ccc(Cl)cc3c1C)C2	?
CC1(C)S[C@@H]2[C@H](NC(=O)C(N)c3ccccc3)C(=O)N2[C@H]1C(=O)OC1OC(=O)c2ccccc21 (some centres undefined)	-7%[56.6 µM]
CN(CC(=O)N1CCOCC1)Cc1c(Cl)cccc1NC(=O)c1ccccc1	17%
CCC1(C2CCN(Cc3ccoc3)CC2)NC(=O)N(CC2COc3ccccc3O2)C1=O (centres undefined)	-11%
C=C[C@]1(C)CC(=O)[C@@]2(O)[C@@]3(C)C(O)CCC(C)(C)C3C(O)C(OC(C)=O)[C@@]2(C)O1 (some centres undefined)	-6%
COCCn1c(=O)c(-c2ccccc2)nc2cnc(N3CCNCC3)nc21	-11%
Cc1noc(C)c1-c1nc(NC2CC2)c2ccccc2n1	-8%
COc1cc2nc(N(C)C)c(CNC3CCOC(C)(C)C3)cc2c(OC)c1OC (centres undefined)	-9%
COc1ncc2nc(CCc3ccccc3)c(=O)n(C3CC3)c2n1	-25%
C[C@]12CCC3c4ccc(OC(=O)c5ccccc5)cc4CCC3C1CCC2=O (some centres undefined)	-5%
OC(CN1CCCC1)c1ccccc1 (centres undefined)	-24%
CC(O)[C@@H]1NC(=O)[C@H](Cc2ccccc2)NC(=O)[C@H](C(C)O)NC(=O)[C@H](CCCCN)NC(=O)[C@H](Cc2c[nH]c3ccccc23)NC(=O)[C@H](Cc2ccccc2)NC(=O)[C@H](Cc2ccccc2)NC(=O)[C@H](CC(N)=O)NC(=O)[C@H](CCCCN)NC(=O)[C@@H](NC(=O)CNC(=O)[C@H](C)N)CSSC[C@@H](C(=O)O)NC(=O)[C@H](CO)NC1=O (some centres undefined)	5%
The listing continues:
SMILES	EPAC2 antag
CC(=O)C1CCC2C3CCC4=CC(=O)CC[C@@]4(C)C3CC[C@]12C (some centres undefined)	?
CC(=O)Nc1ccc(OC(C)=O)cc1	-6%
CC(C)CN1CCCC2(CCN(C(=O)c3cnccn3)CC2)C1	-10%
Oc1ccc(C2Oc3cc(O)cc(O)c3CC2O)cc1 (centres undefined)	-7%
CC(=O)NCCNc1cc(-c2ccccc2CN(C)C)ncn1	-12%
O=S(=O)(O)CC(S)CS (centres undefined)	?
Cc1oc(-c2cccc(NC(=O)c3ccccn3)c2)nc1CNC(=O)C#Cc1ccccc1	-3%
CO[C@H]1[C@H](NC(=O)c2ccco2)c2ccccc2C12CCN(Cc1cccn1-c1ccccn1)CC2	-19%
CN1CCN(c2ncc3nc(-c4ccc(F)cc4)c(=O)n(Cc4cccs4)c3n2)CC1	-14%
COCCn1c(=O)c(C)nc2cnc(OCc3ccccc3)nc21	-24%
COc1cccc(-c2ccc3ncnc(NCc4cccnc4)c3c2)c1	-23%
CO[C@@]12C[C@@H](COC(=O)c3cncc(Br)c3)CN(C)[C@H]1Cc1cn(C)c3cccc2c13	-19%
COc1cccc(C2(CC(=O)N3CCN(c4nonc4C)CC3)CC(=O)N(C3CCCC3)C2=O)c1 (centres undefined)	1%
COc1ccc2c(c1)c(CC(=O)OCC(=O)O)c(C)n2C(=O)c1ccc(Cl)cc1	?
CN/C(=C\[N+](=O)[O-])NCCSCc1csc(CN(C)C)n1	-6%[56.6 µM]
COc1ccccc1C(=O)Nc1cccc(N2CCC(NCc3cnn(-c4ccccc4)n3)CC2)c1	-9%
c1ccc2c(c1)CN1CCCC1=N2	?
O=C(Nc1ccc(Cl)c(C(F)(F)F)c1)[C@@H]1CC=C[C@@H]2CCN(C3CCCCC3)C(=O)[C@@H]21	-22%
O=C(O)C1CCC[C@@H]2[C@@H]3CC(CN12)[C@@H]1CCCCN1C3 (some centres undefined)	12%
COc1ccc(CN2CC[C@H]3C=CC[C@@H](C(=O)NCCc4ccccc4)[C@H]3C2=O)cc1OC	-14%
CC(=C(CCOP(=O)(O)O)SC(=O)c1ccccc1)N(C=O)Cc1cnc(C)nc1N	-8%
Cc1ccc(O)c(N=Nc2ccccc2)n1	56µM*!
CCn1c(-c2ccccc2F)nc2cc(NC(C)=O)cc(C(=O)N3CCNC(=O)C3CC(=O)OC)c21 (centres undefined)	-8%
O=C(NCC(O)CO)c1c(I)c(C(=O)NCC(O)CO)c(I)c(N(CCO)C(=O)CO)c1I (centres undefined)	-6%[56.6 µM]
CCCCN1CC[C@H]2C=CC[C@@H](C(=O)NC3CCCCC3)[C@H]2C1=O	?
(cont.)
SMILES	EPAC2 antag
COc1cc(-c2noc(C)c2/C=C/c2cccc([N+](=O)[O-])c2)cc(OC)c1OC	?
COc1ccccc1C(=O)N[C@@H]1c2ccccc2C2(CCN(Cc3ccc4c(c3)OCO4)CC2)[C@H]1O	?
O=C1CCC[C@@H]2CC(N(Cc3cc4ccccc4s3)c3ccccc3)C[C@@H]3CCN1[C@H]23 (some centres undefined)	-4%
COCC(=O)N1CCC2(CCCN(C(=O)Nc3cccc(F)c3)C2)CC1	-12%
CNC(=O)Oc1ccc2c(c1)[C@@]1(C)CCN(C)[C@@H]1N2C	-19%
CCN(CC)CCNC(=O)c1cc(S(C)(=O)=O)ccc1OC	-7%
OC1(c2ccc3c(c2)CN(Cc2nccs2)CCO3)CCN(c2ccccc2F)CC1	-20%
CCCCC[C@H](O)/C=C/[C@H]1C=CC(=O)[C@@H]1CCCCCCC(=O)O	?
Cc1ccc(S(=O)(=O)N[C@@H](Cc2ccccc2)C(=O)CCl)cc1	-15%
Cc1ccc(C)c(OCCCC(C)(C)C(=O)O)c1	?
COCC(=O)Nc1cc(C(=O)N2CCc3ccccc3C2)c2c(c1)nc(-c1ccncc1)n2C	-3%
COc1cc(O)ccc1CN1CCc2nnc(C(C)NC(=O)c3cc(F)ccc3F)n2CC1 (centres undefined)	6%
COc1ccc(-n2c(=O)c(-c3ccc(Cl)cc3)nc3cncnc32)cc1	-16%
C[C@@H](CSc1ccccc1)CN1CC[C@H](O)CCC1=O	?

Of the compounds above, these contain fluorine.
SMILES	EPAC2 antag
COC(F)(F)C(Cl)Cl	-7%
O=C(Nc1ccccc1)N1CC2(CCN(C(=O)c3cccc(F)c3)CC2)C1	-26%
O=C(Nc1cccc(F)c1)N1CC[C@@]2(CCCN(C(=O)c3cc(C(F)(F)F)cc(C(F)(F)F)c3)C2)C1	?
COc1cc(CNc2nc(C)c(-c3ccn(CC4CCCN(C)C4)n3)s2)ccc1F (centres undefined)	-4%
CCCCCCCCCCCCN1[C@@H](CC(=O)OC)c2cc(F)ccc2S1(=O)=O	-7%
Cn1cccc1C(=O)N1CCC[C@@]2(CCN(C(=O)Nc3cccc(F)c3)C2)C1	-19%
CCOC(=O)C[C@H]1c2cc(F)ccc2S(=O)(=O)N1C(C)C	-16%
CN1CCN(c2ncc3nc(-c4cc(F)cc(F)c4)c(=O)n(Cc4cccs4)c3n2)CC1	-7%
Cc1ncc2c(c1CNC(=O)c1ccccc1F)CCN(C(=O)c1[nH]c3ccc(Cl)cc3c1C)C2	?
CN1CCN(c2ncc3nc(-c4ccc(F)cc4)c(=O)n(Cc4cccs4)c3n2)CC1	-14%
O=C(Nc1ccc(Cl)c(C(F)(F)F)c1)[C@@H]1CC=C[C@@H]2CCN(C3CCCCC3)C(=O)[C@@H]21	-22%
CCn1c(-c2ccccc2F)nc2cc(NC(C)=O)cc(C(=O)N3CCNC(=O)C3CC(=O)OC)c21 (centres undefined)	-8%
COCC(=O)N1CCC2(CCCN(C(=O)Nc3cccc(F)c3)C2)CC1	-12%
OC1(c2ccc3c(c2)CN(Cc2nccs2)CCO3)CCN(c2ccccc2F)CC1	-20%
COc1cc(O)ccc1CN1CCc2nnc(C(C)NC(=O)c3cc(F)ccc3F)n2CC1 (centres undefined)	6%

High-throughput results as filed in PubChem BioAssay.
